Source: PubChem BioAssay
VDR inhibitor = blocks the human vitamin D receptor | 0.93% of 400,000 active | VDR-SRC2-3 peptide fluorescence polarization, 2 h | P11473 | Potency, µM, without a hit: max response, negative = inhibition, actives largely listed as inhibitors; active means well fitted inhibition curve with a large enough effect; inconclusive means small, poorly fitted or top-dose-only effect, or another doubt; inactive means no such curve, though single readings can be large or run the other way; further: series mostly up to about 120 µM
Target sequence (P11473 whole entry, looked up): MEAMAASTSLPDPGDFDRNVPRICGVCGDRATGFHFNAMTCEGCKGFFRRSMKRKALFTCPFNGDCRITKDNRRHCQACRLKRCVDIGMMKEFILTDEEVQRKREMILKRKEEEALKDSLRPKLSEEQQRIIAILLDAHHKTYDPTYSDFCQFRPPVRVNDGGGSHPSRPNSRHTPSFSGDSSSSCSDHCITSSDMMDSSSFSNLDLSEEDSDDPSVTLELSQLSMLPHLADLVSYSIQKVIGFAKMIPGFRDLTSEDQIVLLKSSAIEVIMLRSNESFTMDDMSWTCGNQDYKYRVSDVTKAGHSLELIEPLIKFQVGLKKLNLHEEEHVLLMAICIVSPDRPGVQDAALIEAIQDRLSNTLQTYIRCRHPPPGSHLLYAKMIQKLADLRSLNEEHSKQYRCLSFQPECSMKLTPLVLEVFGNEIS
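Signal is fluorescence polarization, reporting how far test compounds block the interaction of VDR with the SRC2-3 coregulator peptide after a 2 h room-temperature incubation.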
The depositor's hits bear a star; ? = inconclusive; & = joins results of further samples; [ ] = dose if it differs, or a comment. On the % scale 0 is the no-effect control and ±100 the full control effect; potency means the concentration at half of the fitted maximal effect. The list is partial; the hit share may differ from the screen's.

No.	molecule	VDR inhibitor
1	Cc1ccc(NC(=O)[C@H](Cc2ccccc2)N2Cc3ccccc3C2=O)cc1	-2%
2	COC(=O)c1ccccc1NC(=O)CN(c1c(C)cccc1C)S(C)(=O)=O	20%
3	Cn1cc(Br)c(C(=O)NNC(=O)c2cccc(Br)c2)n1	-7%
4	NC1=C([N+](=O)[O-])C(c2ccc3c(c2)OCO3)C2=C(CCCC2=O)O1 (stereo not drawn)	-2%
5	O=C(Nc1ccccc1)N1CCN(c2ccc(C(F)(F)F)cn2)CC1	16%
6	O=C(COC(=O)CC1c2ccccc2CCN1S(=O)(=O)c1ccccc1)Nc1ccccc1 (stereo not drawn)	-13%
7	Cc1cc(C)cc(NC(=O)C(c2ccccc2)N2CCN(CC(=O)N3CCCC3)CC2)c1 (stereo not drawn)	6%
8	COC(=O)CSc1nc2sc3c(c2c(=O)n1-c1ccc(C)cc1)CC(C(C)C)OC3 (stereo not drawn)	-10%
9	COCCn1c(SCC(=O)Nc2ccc(F)cc2F)nc2c([nH]c3ccccc32)c1=O	7%
10	COc1ccccc1NC(=O)c1cc2ccccc2nc1C	-14%
11	O=C(O)c1cc2nc(C3CC3)cc(C(F)(F)F)n2n1	9%
12	Cc1ccc(N(CC(=O)N2CCN(c3cc(Cl)ccc3C)CC2)S(=O)(=O)c2c(C)noc2C)cc1	-24%
13	C1CCC(n2nnnc2CN2CCN(C3CCCC3)CC2)CC1	-14%
14	CNS(=O)(=O)c1cccc(C(=O)OCc2cc(=O)n3cc(Br)ccc3n2)c1	-7%
15	Cc1cnc(C(=O)OCC(=O)Nc2ccc(C)c(S(=O)(=O)N3CCOCC3)c2)cn1	-6%
16	COc1ccc(OCc2cc(=O)[nH]c3ccccc23)cc1	-21%
17	CCOc1ccccc1N1CCN(C(=O)C2c3ccccc3Oc3ccccc32)CC1	0%
18	COc1cc(OC)c(C(=O)O/N=C(\N)c2ccccc2)cc1OC	0%
19	CCOC(=O)C(C)Sc1nc(=O)n2ccccc2n1 (stereo not drawn)	-13%
20	O=C(c1ccco1)N1CCN(C(=O)c2sccc2-c2ccccc2)CC1	9%
21	O=C(O)c1ccccc1NS(=O)(=O)c1ccc2c3c(cccc13)C(=O)N2	-21%
22	COc1ccc(Cl)cc1NC(=O)c1c(NCc2cccnc2)sc2c1CCC(C)C2 (stereo not drawn)	-25%
23	CC(=O)Nc1cccc(NC(=O)C2(c3cccs3)CCOCC2)c1	6%
24	CCN(CC)S(=O)(=O)c1ccc(N2CCN(C)CC2)c(NC(=O)CSCC(=O)Nc2cccc(C)c2)c1	-9%
25	COC(=O)c1cccc(N2C(=O)c3ccccc3S2(=O)=O)c1	-4%
26	Cc1cc(=O)oc2c3c(cc(OCC(=O)NCC4CCC(C(=O)O)CC4)c12)OC(C)(C)CC3 (stereo not drawn)	-5%
27	CS(=O)(=O)N1CCC(C(=O)N2CCN(c3ccccc3F)CC2)CC1	?
28	COc1ccc(CNc2nc(-c3cccnc3)nc3ccccc23)c(OC)c1	-9%
29	CC(C)OCCCNC(=O)C1CCC(=O)N1C(C)C (stereo not drawn)	-11%
30	CCCCOC(=O)c1ccc(NC(=O)C(=O)NCCN(CC)CC)cc1	-18%
31	CCCCCC(=O)N/N=C(\C)c1ccc(NC(=O)c2ccco2)cc1	-8%
32	CC1CN(S(=O)(=O)c2cccc(C(=O)NCCC3=CCCCC3)c2)CC(C)O1 (stereo not drawn)	-2%
33	Cc1cccc(C)c1NC(=S)N/N=C/c1ccc(OCCC(C)C)cc1	10%
34	COCCN(C(=O)COC(=O)C(c1ccccc1)c1ccccc1)c1c(N)n(Cc2ccccc2)c(=O)[nH]c1=O	5%
35	COc1cc2nc(SCC(=O)NCc3ccco3)n(Cc3ccc(Cl)cc3)c(=O)c2cc1OC	4%
36	CCOC(=O)C1=C(C)N=C2SCCC(=O)N2[C@@H]1/C=C/c1ccccc1	-17%
37	CCCCNC(=O)N1CCN(c2ccccc2OCC)CC1	-13%
38	Cc1ccc[n+](-c2[nH]c(=O)sc2/C=N/NC(=O)c2ccccc2[O-])c1	-12%
39	COc1cccc(C(=O)Nc2ccc3c(c2)C(=O)c2ccccc2C3=O)c1	-15%
40	Cc1ccc(S(=O)(=O)C(c2ccccc2)c2c(C)noc2C)cc1 (stereo not drawn)	3%
41	Cc1cc2c(=O)n(C)c(SCC(=O)Nc3ccccc3)nc2s1	-5%
42	O=C(N/N=C\c1ccc(Br)cc1)c1ccc(Cn2cccn2)o1	-6%
43	CCCc1nnc(SCC(=O)Nc2ccc(C(=O)OCC)cc2)o1	-15%
44	CCn1c(=O)n(CC)c2cc(S(N)(=O)=O)ccc21	6%
45	Cn1c(Oc2ccccc2NCc2cccc(Br)c2)cc(=O)n(C)c1=O	16%
46	COc1cc(C(=O)N/N=C/c2ccccn2)cc(OC)c1OC	-9%
47	Cc1nc2cc(-c3ccccc3)[nH]n2c(=O)c1C	0%
48	COc1ccc(C(=O)OCC2CC(c3ccccc3)N(C)O2)cc1 (stereo not drawn)	8%
49	CCc1ccccc1NC(=O)Cn1nnc(C(=O)Nc2ccc(C)c(F)c2)c1N	20%
50	Nc1ncc(S(=O)(=O)NCc2cccc(Cl)c2)cn1	25%
51	COc1cccc(C2=CC(c3ccc(N(C)C)cc3)n3nnnc3N2)c1 (stereo not drawn)	-12%
52	COc1ccc(-n2c(=O)c3c4c(sc3n3c(=S)[nH]nc23)CCC4)cc1	10%
53	CCOC(=O)CN1C(=O)C(C)(C)Oc2ccc(C(=O)Nc3ccccc3OC)cc21	-1%
54	CCC(=O)N1CCN(C(=O)c2ccccc2)CC1	-9%&8%
55	Cn1c(=O)c2ncn(CC(=O)Nc3cc(C(F)(F)F)ccc3N3CCOCC3)c2n(C)c1=O	5%
56	Cc1cccc(CC(Cc2nc3ccccc3[nH]2)c2nc3ccccc3[nH]2)c1 (stereo not drawn)	3%
57	Cc1ccccc1-n1nc2c(c1NC(=O)c1cc3ccccc3o1)CS(=O)(=O)C2	-2%
58	CCCc1[nH][nH]c(=O)c1C(c1ccc(Br)cc1)C(C#N)C#N (stereo not drawn)	79µM*
59	Cn1c(=O)c2c(SCC(=O)NCc3ccco3)nc(-c3ccccc3F)nc2n(C)c1=O	9%
60	CCC(=O)N1N=C(c2ccc(Cl)cc2)CC1c1ccco1 (stereo not drawn)	1%

Reformatted field by field: four of the compounds above
27. CS(=O)(=O)N1CCC(C(=O)N2CCN(c3ccccc3F)CC2)CC1
  VDR inhibitor: ?
21. O=C(O)c1ccccc1NS(=O)(=O)c1ccc2c3c(cccc13)C(=O)N2
  VDR inhibitor: -21%
19. CCOC(=O)C(C)Sc1nc(=O)n2ccccc2n1 (stereo not drawn)
  VDR inhibitor: -13%
50. Nc1ncc(S(=O)(=O)NCc2cccc(Cl)c2)cn1
  VDR inhibitor: 25%

(cont.)
No.	molecule	VDR inhibitor
61	CS(=O)(=O)N(CC(=O)N1CCC(C(N)=O)CC1)C1CCCCC1	-11%
62	CCOC(=O)CSc1nc2ccc(NC(C)=O)cc2s1	-13%
63	CS(=O)(=O)N1CCN(c2nc(-c3ccccc3)cs2)CC1	-1%
64	O=C(CSC(=S)N1CCCCC1)Nc1ncc2c(n1)CCCC2=O	10%
65	CCN1C(=O)[C@H]2[C@H]3CN=C(SCc4ccc(Cl)cc4)N3[C@@](Cc3ccccc3)(C(=O)OC)[C@H]2C1=O	-4%
66	COc1ccc(C(C)=O)cc1CSc1nnc(-c2ccncc2)n1C	-7%
67	CC(=O)c1ccccc1NC(=O)COC(=O)/C(=C/c1ccccc1)n1nnnc1C	-20%
68	Cc1cc2ncn(N)c2cc1C	-18%
69	Cc1occc1C(=O)Nc1cccc2ccccc12	5%
70	O=S(=O)(N1CCOCC1)n1cnc2ccccc21	3%
71	O=C(NCCN1C(=O)S/C(=C\c2ccc(F)cc2)C1=O)C1CCN(S(=O)(=O)c2cccs2)CC1	?
72	CCCCN(c1ccccc1)S(=O)(=O)c1cccc(C(=O)O)c1	-16%
73	O=c1c2cc(NC(=S)NC3CCN(Cc4ccccc4)CC3)ccc2nc2n1CCCCC2	-5%
74	Cc1ccc(CNC(=O)CSCc2nc(-c3cccc(C)c3)oc2C)cc1	-12%
75	CCc1cc(=O)oc2c3c(cc(OCC(=O)NCc4ccco4)c12)OC(C)(C)CC3	-14%
76	Cc1cc(Cl)c2oc(C(=O)NCCC3CCCCO3)c(C)c2c1 (stereo not drawn)	4%
77	Cc1cccc(N2CCN(c3nc4ccccc4c4nc(-c5cccnc5)nn34)CC2)c1C	7%
78	S=C(NCCc1ccccn1)NC1CC2CCC1C2 (stereo not drawn)	10%
79	CCOC(=O)c1c(NC(=O)c2cc(CC)on2)sc(C)c1C	79µM*
80	O=C(CN1C(=O)CCC1=O)NCC12CC3CC(CC(C3)C1)C2	3%
81	Cn1c(C(=O)Nc2ccc3c(c2)OCO3)cc2sccc21	0%
82	CCN(CC)CCNC(=O)c1sc2nc(C)cc(C)c2c1-n1cccc1	3%
83	O=C(Nc1ccc(OC(F)(F)F)cc1)C(Cc1ccccc1)NS(=O)(=O)c1cccc2nsnc12 (stereo not drawn)	2%
84	CC(=O)Nc1ccccc1OCC(O)CS(=O)(=O)c1ccc(C(F)(F)F)cn1 (stereo not drawn)	-9%
85	CN(C)C(=O)COc1ccc2ccc(=O)oc2c1	-2%
86	CN(Cc1ccon1)C(=O)C1CCC(=O)N(CCc2ccc(Cl)cc2)C1 (stereo not drawn)	-28%
87	Cc1ccc(S(=O)(=O)c2nc(S(=O)(=O)c3ccccc3)sc2N2CCN(C)CC2)cc1	?
88	CCOC(=O)CC(NC(=O)c1cc2cc(Cl)cc(Cl)c2oc1=O)c1cccc([N+](=O)[O-])c1 (stereo not drawn)	-3%
89	Nc1nc(=S)c2ncn(C3CCCCC3)c2[nH]1	8%
90	C=CCN=C1NN=C(c2cc(C)n(CC=C)c2C)CS1	-19%
91	COc1ccc(OC)c(C2NC(=O)NC(C)=C2C(=O)Nc2cc(C)cc(C)c2)c1 (stereo not drawn)	7%
92	Cc1cccc(N2CCN(CCCNC(=O)C3CCCN(c4ncnc5c4nc4n5CCCCC4)C3)CC2C)c1 (stereo not drawn)	4%
93	CCOC(=O)c1cc(C)n(CC2CCC(C(=O)Nc3cccc(C(C)=O)c3)CC2)c1C (stereo not drawn)	-8%
94	CC(=O)c1cccc(NC(=O)Nc2ccc3c(c2)OCO3)c1	9%
95	CC(C)(CNC(=O)C1CCCN1C(=O)c1cccs1)N1CCOCC1 (stereo not drawn)	2%
96	O=C(OCC(=O)c1ccc(Br)s1)c1ccc(O)cc1	1%
97	O=C(NCc1ccccc1)C1CCCN(C(=O)c2ccc(F)cc2)C1 (stereo not drawn)	-5%
98	COc1ccc(N(Cc2cc3cc(OC)ccc3[nH]c2=O)C(=O)c2cccc(Cl)c2)cc1	8%
99	Cc1cccn2c(=O)c3cc(C(=O)NCc4cccnc4)c(=N)n(CC4CCCO4)c3nc12 (stereo not drawn)	4%
100	CCCN(CCC)CC(C)(C)NS(=O)(=O)c1ccc(Cl)cc1	14%

Part of the list above in another layout.
92: Cc1cccc(N2CCN(CCCNC(=O)C3CCCN(c4ncnc5c4nc4n5CCCCC4)C3)CC2C)c1 (stereo not drawn)
- VDR inhibitor: 4%

93: CCOC(=O)c1cc(C)n(CC2CCC(C(=O)Nc3cccc(C(C)=O)c3)CC2)c1C (stereo not drawn)
- VDR inhibitor: -8%

Remaining list, next part
No.	molecule	VDR inhibitor
101	CCN(CC)S(=O)(=O)c1ccc(N2CCOCC2)c(NC(=O)c2cccc(C#N)c2)c1	10%
102	CC(C)CC(=O)Nc1ccc(-c2nc3ccccc3c(=O)o2)cc1	-25%
103	O=C(NC1CC1)C1=C[C@@H](C2CC2)C[C@@H](OCc2ccc(CO)cc2)O1	-6%
104	CC(=O)c1n[nH]nc1Nc1nc(C)cc(C)n1	-2%
105	CCc1cc[n+](/C(C(=S)Nc2cccc(C)c2)=C(/[O-])c2ccc(C)c([N+](=O)[O-])c2)cc1	30%[activator]
106	CCOc1cccc(CN2CCCC(C(=O)Nc3cccc(-n4cccn4)c3)C2)c1 (stereo not drawn)	3%
107	COc1cccc(C(Nc2ccccn2)c2c(NC(=O)c3ccco3)sc(C)c2C)c1 (stereo not drawn)	-11%
108	CCOC(=O)c1ccccc1NC(=O)CSc1nnnn1C	25%
109	CCCCOC(=O)N1CCOCCOCCOCC1	2%
110	Cc1ccc(S(=O)(=O)NCC(=O)OCc2nnc(-c3ccccc3)o2)cc1C	1%
111	COc1ccc(-c2cc(CCCC(=O)NCCc3ccccc3)no2)cc1	19%
112	CN(C)c1ccc(-n2c(CCC(=O)O)ccc2-c2ccccc2)cc1	?
113	Cc1cc(NS(=O)(=O)c2ccc(N3C(=O)C4C5C=CC(C5)C4C3=O)cc2)nc(C)n1 (stereo not drawn)	-17%
114	COc1ccc(OCCSc2ncccn2)cc1	0%
115	O=C(CCC1CCCCC1)Nc1cc(Cl)ccc1N1CCOCC1	-9%
116	O=C(O)/C=C/C(=O)Nc1ccc(Cc2ccc(NC(=O)/C=C/C(=O)O)cc2)cc1	6%
117	COc1ccc(N2CC(C(=O)Nc3nnc(SCC(=O)N4CCOCC4)s3)CC2=O)cc1 (stereo not drawn)	-23%
118	Cc1ccc(C)c(N2CCN(C(=S)Nc3ccc4nc(N5CCN(C)CC5)cc(C)c4c3)CC2)c1	29%
